TRPML1 agonist: human mucolipin-1 channel agonism; Q9GZU1; TRPML1-expressing cells, Ca2+ dye fluorescence, FDSS; host cell line not named in the record; reference of the full effect not given here; activation, % (concentration not given with the values); hit rate 0.12% among 410,000; AID 624414; in the data active = activation above about 50%; inconclusive = about 30% to 50%; inactive = below about 30%; also: 0% is about no effect; the text of the record puts the active cut at 80%
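Agonist activity was taken from a 110 s kinetic Ca2+ dye read on the FDSS after pinning compounds onto TRPML1-DL cells. The cells were seeded at 1,500/well with Tet inducer, incubated about 16 h, then dye-loaded at room temperature.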
TRPV1 potentiator: potentiators of human vanilloid receptor 1 (TRPV1) | Q8NER1 | TRPV1-expressing cells, Fluo-8 calcium influx, capsaicin EC20 potentiation; host cell line not named in the record; control for the full effect not named in the record | potentiation, % at 8.33 µM | hit rate 0.02% among 320,000 | AID 540277; active means potentiation above 80%; inconclusive means 30% to 80%; inactive means below 30%; also: 0% is about no effect
Target sequence (Q8NER1 whole entry, looked up): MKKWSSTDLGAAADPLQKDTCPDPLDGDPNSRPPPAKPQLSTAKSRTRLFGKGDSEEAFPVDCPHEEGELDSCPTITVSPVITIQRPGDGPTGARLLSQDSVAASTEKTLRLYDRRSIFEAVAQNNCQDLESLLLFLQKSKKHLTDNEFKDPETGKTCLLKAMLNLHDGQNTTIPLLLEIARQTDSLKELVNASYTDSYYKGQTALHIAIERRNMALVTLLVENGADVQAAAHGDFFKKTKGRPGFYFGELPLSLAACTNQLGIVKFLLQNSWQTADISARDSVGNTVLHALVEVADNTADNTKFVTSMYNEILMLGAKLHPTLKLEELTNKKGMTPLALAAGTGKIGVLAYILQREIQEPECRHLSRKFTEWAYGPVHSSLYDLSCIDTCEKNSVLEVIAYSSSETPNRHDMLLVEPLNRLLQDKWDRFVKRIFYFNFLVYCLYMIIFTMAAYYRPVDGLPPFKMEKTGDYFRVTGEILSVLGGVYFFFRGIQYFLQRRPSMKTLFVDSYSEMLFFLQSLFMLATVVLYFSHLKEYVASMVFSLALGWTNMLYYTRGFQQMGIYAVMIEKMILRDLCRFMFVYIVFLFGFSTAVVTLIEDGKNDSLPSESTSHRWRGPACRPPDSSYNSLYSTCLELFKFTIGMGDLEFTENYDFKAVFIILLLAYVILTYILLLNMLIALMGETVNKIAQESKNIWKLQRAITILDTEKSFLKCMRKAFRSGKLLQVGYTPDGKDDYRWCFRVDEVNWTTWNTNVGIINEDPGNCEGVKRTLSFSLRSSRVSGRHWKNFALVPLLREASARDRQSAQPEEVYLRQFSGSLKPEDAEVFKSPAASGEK
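TRPV1-expressing cells were cultured overnight at 35.5C and loaded with Fluo-8 calcium dye for 40 to 90 min at room temperature. After a 10 s baseline, compound was added and calcium influx was read kinetically for 3 min (ex 480/em 520 nm).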
D2 potentiator: potentiates the human D2 dopamine receptor allosterically | P14416 | DiscoveRx D2 beta-arrestin cells, luminescence, 90 min; 100% = 57 uM dopamine signal | potentiation, % (test concentration not listed) | hit rate 0.23% among 360,000 | AID 624464; active = potentiation of 50% or more; inconclusive = 30% to 50%; inactive = 30% or less;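 also: compound concentration not given in the record; tested on top of an EC20 dose of dopamine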
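PathHunter beta-arrestin assay in DiscoveRx D2 cells. Compounds were added with an EC20 of dopamine (50 nM final) for 90 min at 37 deg C. Luminescence was read 1 h after detection reagent, with 57 uM dopamine as the EC100 control.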
TRPML1 blocker: inhibitors of human TRPML1 channel | Q9GZU1 | TRPML1-inducible cells, Ca2+ dye fluorescence, FDSS; stronger effect = lower value; inhibition of EC80 agonist-evoked calcium signal | activity change, negative = inhibition, % (no concentration beside the values) | hit rate 0.02% among 390,000; in the data active means activity change below about -50%; inconclusive means about -30% to -50%; inactive means above about -30%;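 also: stimulus is agonist 54-4 at its EC80 concentration; % is scaled to controls: 0 for no effect and ±100 for the full control effect; compound concentration not given in the record; the text of the record puts the active cut at -80%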
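Tet-induced TRPML1-DL cells loaded with Ca8 no-wash calcium dye were read kinetically on FDSS. Compound addition was followed by EC80 agonist 54-4 (4 uM final); inhibition was read over 110 s.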
CtBP-E1A inh: inhibitors of CtBP/E1A interaction | AlphaScreen GST-E1A/His-CtBP binding, 1536-well; stronger effect = lower value; control for the full effect not named in the record | activity change, % (no concentration beside the values) | hit rate 0.49% among 340,000; in the data active means activity change below about -65%; inconclusive means about -30% to -65%; inactive means above about -30%; also: % is scaled to controls: 0 for no effect and ±100 for the full control effect; compound concentration not given in the record
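GST-E1A and His-tagged CtBP (125 nM each as 5X stock) were preincubated with pin-transferred compound for 2 h at 37 °C in the dark, then glutathione donor and nickel acceptor beads were added for 1 h before AlphaScreen reading.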
Six1-Eya2 blk: Six1/Eya2 interaction inhibition; AID 651725; AlphaScreen GST-Six1/His-Eya2 binding, biochemical; stronger effect = lower value; control for the full effect not named in the record; activity change, % (test concentration not listed); hit rate 0.56% among 360,000; Q15475+O00167; in the data active = activity change below about -65%; inconclusive = about -30% to -65%; inactive = above about -30%; also: % is scaled to controls: 0 for no effect and ±100 for the full control effect; compound concentration not given in the record
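Homogeneous AlphaScreen proximity assay pairing GST-Six1 with His-tagged Eya2 (added as 5X mix: 250 nM and 500 nM) in 50 mM Tris pH 8.0, 300 mM NaCl, 1 mM TCEP. Glutathione donor and nickel acceptor beads; 1 h, 37 °C, dark.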
* marks the source's active call; other numbers are inactive results; u = inconclusive; x = not tested or not shown; & = joins results of further samples. This is a subset; rates above refer to the full screens.

SMILES	TRPML1 agonist	TRPV1 potentiator	D2 potentiator	TRPML1 blocker	CtBP-E1A inh	Six1-Eya2 blk
Cc1cccc(OCC(=O)N2CCN(Cc3cccnc3)CC2)c1	0.8	-7	-5	-1	-4	-3
O=c1[nH]c(=S)n(Cc2ccc(F)cc2)c(O)c1C=NCc1ccc2c(c1)OCO2	0.9	0	-1	-24	2	5
COC(=O)C1=C(c2c(C)noc2C)C[C@@H]2CC[C@H]1N2C(=O)NCc1ccc(C(F)(F)F)cc1	-0.6	-19	-9	-8	x	-7
Fc1ccccc1CCNCc1cccc(Cl)c1Cl	1.6	x	-22	7	-3	21
CCC(=Nc1ccc(OC)cc1OC)c1c(O)n(C)c(=O)n(C)c1=O	-0.6	-4	-11	1	1	0
O=C(NP(=O)(N1CC1)N1CC1)c1cc(I)ccc1I	0.3	x	-13	19	-21	5
Nc1ccc(-c2ccc(N)cc2)cc1	0.5	x	-18	0	3	-1
Cc1ccc(OP(=O)(NC(C)c2ccccc2)Oc2ccc(C)cc2)cc1 (stereo not drawn)	2.6	-11	-9	-5	-1	7
Cc1nn(Cc2ccccc2)c(C)c1C=C1C(=O)NC(=S)NC1=O	0.3	10	-12	22	11	6
COC(=O)C1=C(c2ccc(F)cc2OCc2ccccc2)C[C@@H]2CC[C@H]1N2C(=O)NCc1ccccc1Cl	-0.1	9	-21	10	-25	-4
CCOC(=O)C1CCN(Cc2ccc(Cl)nc2)CC1	-0.4	-8	-13	9	1	-1
CC1(CCl)CN1S(=O)(=O)c1ccccc1 (stereo not drawn)	x	4	-1	x	5	5
CCSC1=NN1c1cc(C)nc(N)n1	0.5	-4	-9	22	-10	-6
COc1cc(/C=C/c2nc3ccccc3c(=O)n2-c2ccccc2O)ccc1O	6.8	-14	8	-24	5	-7
O=C(c1cccs1)N1CCC(C(=O)O)(c2ccccc2)CC1	-0.6	x	-3	-1	3	-13
O=C(O)CCCc1ccc(N(CCCl)CCCl)cc1	-0.4&-0.4	3	-8	-10	8	4
COc1ccc(Br)cc1CN1CCN(CCO)CC1	0.8	-10	-25	20	-8	2
Cc1ccc(CNC2=NCCS2)cc1	0.1	0	-2	1	4	-2
c1ccc(-c2ccc3c(c2)CNCc2cnnn2-3)cc1	0.0	x	-8	x	0	7
O=C(NC[P+](=O)O)OCc1ccccc1	0.6	29	-12	-18	6	2
CNc1ccc2oc(C[C@H]3O[C@@]4(CC[C@H]3C)O[C@H]([C@H](C)C(=O)c3ccc[nH]3)[C@H](C)C[C@H]4C)nc2c1C(=O)O	18	-2	-16	-4	-13	-8
N#Cc1ccc(Cn2cc(C=O)c3ccccc32)cc1	0.1	-5	-2	-11	-2	1
CC1CCCCN1C(=O)Cn1cc(C=C2C(=O)N(C)C(=O)N(C)C2=O)c2ccccc21 (stereo not drawn)	-0.2	13	-5	-1	-1	0
CC1(C(O)(C#CCN2CCCCC2)c2ccccc2)CCCC1 (stereo not drawn)	-0.1	-3	-15	1	1	-10
CN1C2CCC1/C(=C/c1ccccn1)C(=O)/C2=C\c1ccccn1	0.2	6	-17	-2	4	-16
CN(C)c1ccc(/C=C/C=C2/C(=O)NC(=O)N(c3ccccc3)C2=O)cc1	-0.1	-4	-3	-17	-2	6
Clc1ccc2[nH]c3c(c2c1)CCNC3	0.7	5	-7	17	-15	-1
COC(=O)C1=C(c2ccc(F)cc2OCc2ccccc2)C[C@@H]2CC[C@H]1N2C(=O)NCc1ccc(N(C)C)cc1	1.5	-1	-40	20	-12	u
CCCCN1C(=O)C(C2c3ccccc3C(=O)N2Cc2ccccc2)C(=O)NC1=S (stereo not drawn)	0.0	25	-9	-10	5	-1
CCC(C)(O)C(=O)OC1C(=O)OC2CC3C(C)=CC(=O)C(O)C3(C)C3C4(O)OCC23C1C(C)C4O (stereo not drawn)	0.8	x	-14	8	0	15
O=C(COc1ccc(Br)cc1)N1CCN(Cc2ccncc2)CC1	0.8	-2	17	u	9	3
CN1CCc2nc(N)c(C#N)c(-c3ccccc3)c2C1	0.6	-5	-20	-9	3	-2
CCCCNC(=O)Nc1ccc(C(O)(C(=O)OCC)C(F)(F)F)cc1 (stereo not drawn)	1.6	-4	-5	11	2	6
COc1ccccc1CN1CCN(C(=O)COc2cccc(C)c2)CC1	0.7&-0.9	-16	-16	5&20	2	0
O=Cc1cn(Cc2cccc([N+](=O)[O-])c2)c2ccccc12	-1.0	-3	-16	0	-23	-10
Cc1ccc(S(=O)(=O)N2CN3CCN(C3)C2)cc1	-0.1	1	5	-18	-19	-17
C=CCc1cc(C=C2C(=O)N(C)C(=O)N(C)C2=O)cc(OCC)c1OCc1ccccc1	2.8	-5	-7	14	32	55
CC1=NN(c2ccccc2)C(=O)/C1=C/c1c(O)[nH]c(=S)[nH]c1=O	-1.6	3	-4	-14	2	-2
c1cc2c(cc1-c1ccc3c(c1)OCO3)CNCc1cnnn1-2	-0.4	x	-1	x	-1	-2
CCc1cc2c(cc1-c1csc(C/C(N)=N/O)n1)C(C)(C)CCC2(C)C	0.1	x	-11	3	5	-3
O=C(c1cccc2ccccc12)C1CCCN(C2CCC2)C1 (stereo not drawn)	0.0	-4	-17	0	x	-6
O=C(O)c1cc2ccccc2oc1=O	-0.2	12	-3	31	2	7
C=C(C)C(Cc1c(OC)ccc(C(=O)/C=C/c2ccc(O)cc2)c1O)OO (stereo not drawn)	x	x	-25	x	4	0
COc1ccc(C(C)=O)cc1CC(C(=O)c1ccc(F)cc1)N(C)C (stereo not drawn)	0.8	-6	-12	-16	-10	-18
Clc1ccc(C2N3CCCN23)c(Cl)c1 (stereo not drawn)	-0.6	-8	-22	0	-1	6
COC(=O)CC1(Cc2ccccc2)C(=O)NC(=O)NC1=O	-0.4	-4	-3	10	12	-2
CC1=C(/C=C/c2ccccc2)CCN(C)C1	0.7	-10	-18	16	-8	-10
c1ccc(C(OCCN2CCNCC2)c2ccccc2)cc1	0.5	-8	-28	-16	6	5

Shown with values under each structure: 2 of the compounds above
Every second line gives: TRPML1 agonist | TRPV1 potentiator | D2 potentiator | TRPML1 blocker | CtBP-E1A inh | Six1-Eya2 blk
C=C(C)C(Cc1c(OC)ccc(C(=O)/C=C/c2ccc(O)cc2)c1O)OO (stereo not drawn)
 : x | x | -25 | x | 4 | 0
O=C(O)c1cc2ccccc2oc1=O
 : -0.2 | 12 | -3 | 31 | 2 | 7

Record cards, from the list above. Screens in order: TRPML1 agonist, TRPV1 potentiator, D2 potentiator, TRPML1 blocker, CtBP-E1A inh, Six1-Eya2 blk
Profile of `O=C(O)c1cc2ccccc2oc1=O` = -0.2, 12, -3, 31, 2, 7
Profile of `CC1=NN(c2ccccc2)C(=O)/C1=C/c1c(O)[nH]c(=S)[nH]c1=O` = -1.6, 3, -4, -14, 2, -2
Profile of `COc1ccc(C(C)=O)cc1CC(C(=O)c1ccc(F)cc1)N(C)C` (stereo not drawn) = 0.8, -6, -12, -16, -10, -18
Profile of `C=CCc1cc(C=C2C(=O)N(C)C(=O)N(C)C2=O)cc(OCC)c1OCc1ccccc1` = 2.8, -5, -7, 14, 32, 55
Profile of `C=C(C)C(Cc1c(OC)ccc(C(=O)/C=C/c2ccc(O)cc2)c1O)OO` (stereo not drawn) = x, x, -25, x, 4, 0

(listing goes on)
SMILES	TRPML1 agonist	TRPV1 potentiator	D2 potentiator	TRPML1 blocker	CtBP-E1A inh	Six1-Eya2 blk
O=c1c2ccccc2nc(N2CCCC2)n1-c1ccc(Cl)cc1	0.5	-12	-7	-2	24	18
O=C(c1ccc(-c2ccccc2)cc1)C1CCCN(Cc2ccn[nH]2)C1 (stereo not drawn)	0.0	-10	-11	-6	x	-1
CC1OC(OC2CC(O)C3(CO)C4C(O)CC5(C)C(C6=CC(=O)OC6)CCC5(O)C4CCC3(O)C2)C(O)C(O)C1O (stereo not drawn)	-0.2	x	0	-12	3	6
COc1ccccc1N1C(=O)NC(=O)/C(=C\c2cnn(-c3ccccc3)c2)C1=O	-0.7	-1	3	-16	4	19
CC(C)OC1CCCC(O)C1CC(=O)O (stereo not drawn)	-0.7	-4	-8	13	x	6
C=CCN1C(=O)/C(=C/c2cc(C)n(-c3ccccn3)c2C)C(=O)NC1=S	0.4	7	20	11	23	-9
CCCCCCC(=O)c1c(O)n(-c2ccc(OC)cc2)c(=O)[nH]c1=O (tested in a mixture with another compound)	-0.3	1	-20	27	x	3
OC12ONC(c3ccccn3)C1N1CCC2CC1 (stereo not drawn)	0.0	5	-8	0	-26	-20
COC1=CC(=O)O[C@@H](/C=C/c2ccccc2)C1	-0.7	0	-2	32	2	-4
COc1ccccc1CCNC(=O)CCC(=O)N1CC2C[C@@H](C1)Cn1c2cccc1=O	x	6	-42	x	7	0
FC(F)(F)c1cccc(-n2nnnc2C2(N3CCOCC3)CCCCC2)c1	13	-27	-2	-1	6	12
CCN(CC)c1ccc(N=Cc2c(O)n(-c3cc(OC)ccc3OC)c(=O)[nH]c2=O)cc1	2.5	-1	2	-10	-11	-20
O=c1cccc2n1CC1CC2CN(c2ncnc3c2cnn3-c2ccc(Cl)cc2)C1 (stereo not drawn)	-0.5	5	23	-4	6	-1
CCN1CCN(Cc2cc(OC)c(OC)cc2[N+](=O)[O-])CC1	-0.3	2	-9	4	8	3
Cc1ccc(OP(=O)(O)Oc2ccc(C)cc2)cc1	1.0	x	5	-27	11	-7
CC(=NNC(=S)N1CC2CCC(CC2)C1)c1nccs1	1.2	x	-40	64	-97*	-89*
O=C1C=C2C=C[C@H]3C[C@]2(O1)[C@@H]1CCCCN13	-0.3	10	-44	30	5	0
CCOc1ccc(NC(=O)c2c(C)nn(Cc3ccccc3)c2Cl)cc1	-0.8	-15	-20	-7	-6	4
CCOP(=S)(OCC)c1ccc(N(C)C)cc1	2.6	-11	-19	0	59	0
Clc1ccc(N2CC2c2ccncc2)cc1 (stereo not drawn)	-0.7	1	-4	0	10	-2
O=S(=O)(c1ccccc1)N1CCN2CCCC2C1 (stereo not drawn)	0.6	13	-1	0	-1	-11
C[C@H]1CCC/C=C/C2C[C@H](O)CC2[C@H](O)/C=C/C(=O)O1 (stereo partly drawn)	0.2	3	0	-15	-7	13
CN(C)C1=NC(N(C)C)=NP(N(C)C)(N(C)C)=N1	-0.7	1	-13	1	8	4
COc1ccc(C(CC(=O)N2CCC3(CC2)OCCO3)NS(=O)(=O)c2ccc(F)cc2)cc1 (stereo not drawn)	0.7	-8	-16	24	9	8
CCn1c(O)c(C=Nc2ccc(S(N)(=O)=O)cc2)c(=O)n(CC)c1=S	3.2	-14	-23	-2	5	2
CS(=O)(=O)c1ccc(C2=C(CNC(=O)c3cccnc3)[C@H]3CC[C@@H](C2)N3Cc2ccccc2)cc1	0.5	x	-3	-16	-4	-1
COc1ccc(OC)c(C(c2c(O)c3ccccc3oc2=O)c2c(C)n(C)n(-c3ccccc3)c2=O)c1 (stereo not drawn)	-0.6&-0.4	u	-4	27&12	2	2
C=C(C)Cn1c(=O)n(CC2CS2)c2ccccc21 (stereo not drawn)	-0.4	-10	-6	u	6	4
Cc1cc(OCC(=O)N2C[C@H]3C[C@@H](C2)c2cccc(=O)n2C3)c2c(C)cc(=O)oc2c1	-0.2	10	3	17	4	1
COC(=O)C1C(O)CC2CCC1N2C (stereo not drawn)	-0.3	x	-24	-4	5	-3

High-throughput results (PubChem)
